Screening results (PubChem BioAssay)
PKD1 inh – blocks activity of human protein kinase D1. Q15139. PKD1 kinase fluorescence polarization assay. inhibition, %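 (about 10 µM by stock and volumes)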. 200,000 tested, 0.056% active. AID 797;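 active = inhibition of 50% or more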;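 also: controls were vehicle for no effect and a reference inhibitor for full effect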
GALR2 ag – GALR2 (human) receptor agonism; activation, %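 (tested at 5 µM)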; GALR2-expressing cells, agonist activation read-out; O43603; 140,000 tested, 0.48% active;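 active = above mean plus 3 SD of all compounds, about 5% in these data, not always enough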;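 also: 0% = vehicle buffer wells and 100% = reference agonist at full effect; tested in CHO reporter cells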
Target sequence (O43603 whole entry, looked up): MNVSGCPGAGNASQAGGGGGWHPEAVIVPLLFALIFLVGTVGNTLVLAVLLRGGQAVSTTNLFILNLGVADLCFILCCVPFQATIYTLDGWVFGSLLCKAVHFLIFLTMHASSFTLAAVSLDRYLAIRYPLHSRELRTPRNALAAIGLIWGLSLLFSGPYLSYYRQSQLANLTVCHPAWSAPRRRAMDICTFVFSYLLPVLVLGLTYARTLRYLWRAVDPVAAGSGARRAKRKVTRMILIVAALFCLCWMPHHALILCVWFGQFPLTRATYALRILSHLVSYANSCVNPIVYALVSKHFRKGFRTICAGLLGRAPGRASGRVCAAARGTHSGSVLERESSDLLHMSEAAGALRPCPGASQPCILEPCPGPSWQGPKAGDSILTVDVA
RGS16-Gao HTS – RGS16-Galphao interaction regulator (human); AID 1441; O15492+P09471; binding response (% of control), % at 10 µM; 220,000 tested, 0.38% active; bead-based flow cytometry RGS16-Galphao binding, fluorescence; actives lie on both sides;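 active = below 25% or above 175%, edge rows of some plates excepted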;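 also: Galphao activated by GDP with aluminum fluoride before binding; 100% = wells without compound and 0% = beads without RGS; some results beyond the cut were filed as inactive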
Target sequence (O15492 whole entry, looked up): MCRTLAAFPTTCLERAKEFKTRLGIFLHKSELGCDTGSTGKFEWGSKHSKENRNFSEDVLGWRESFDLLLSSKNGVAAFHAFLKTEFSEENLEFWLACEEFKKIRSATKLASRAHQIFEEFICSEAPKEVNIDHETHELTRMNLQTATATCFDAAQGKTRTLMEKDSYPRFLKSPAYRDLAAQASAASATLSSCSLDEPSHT
Target sequence (P09471 whole entry, looked up): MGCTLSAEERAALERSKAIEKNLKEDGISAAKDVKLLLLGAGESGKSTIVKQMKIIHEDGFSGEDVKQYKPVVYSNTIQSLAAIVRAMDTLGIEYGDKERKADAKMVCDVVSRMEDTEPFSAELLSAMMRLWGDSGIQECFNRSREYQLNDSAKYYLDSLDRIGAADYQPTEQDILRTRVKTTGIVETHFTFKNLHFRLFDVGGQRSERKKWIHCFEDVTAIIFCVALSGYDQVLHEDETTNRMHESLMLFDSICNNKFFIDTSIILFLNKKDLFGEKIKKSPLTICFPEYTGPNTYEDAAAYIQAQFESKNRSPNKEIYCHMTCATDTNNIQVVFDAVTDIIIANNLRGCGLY
HSV augment – increases HSV replication in cells | 220,000 tested, 0.005% active | maximum fold increase | HSV replication augmentation in cells, fold increase;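 active = peak rise of 1.5-fold or more in the series; inconclusive = self-fluorescent or not available for retest; tested in PC3 cells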;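 also: first round at 10 µM; read as green reporter fluorescence; hits show the peak of a series up to 25 µM; 1 = signal of infected wells without compound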
INS promoter inh – TRM-6 insulin promoter activity inhibition; TRM-6 cells (human fetal islet line), insulin promoter-eGFP reporter, imaging; reporter expression induced with tamoxifen; inhibition, % at 2 µM; 130,000 tested, 0.9% active;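 active = inhibition above the mean plus 3 SD, with well images judged a real hit on visual review, cut at about 60% in these data, passing the limit was not always enough; inconclusive = inhibition over the cutoff but images rejected on review; inactive = inhibition not above the cutoff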
INS promoter inh cell count – further read-out of INS promoter inh, marked with its call; normalized cell count, %; measured here: cell count, toxicity; reference of the scale not given here;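 cells exposed to compound for 48 h; stained nuclei by imaging scaled within each plate; lower means fewer cells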
HSV augment primary fold – further read-out of HSV augment, marked with its call; fold increase; compound at 10 µM; measured here: primary screen fold increase 10 uM; tested in PC3 cells;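 GFP signal in the first replicate; 1 = infected wells without compound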
Numbers without * were called inactive. Outcome played no part in choosing rows; any-hit rate near 1.3%.

What do the screens show for `O=C(O)CCCC(=O)Nc1ccc(OCc2nc3ccccc3s2)cc1`?
PKD1 inh: 3.3; RGS16-Gao HTS: 86.0; HSV augment: inactive; HSV augment primary fold: 1.04

What do the screens show for `COc1ccc(CCNS(=O)(=O)c2ccc(F)cc2)cc1OC`?
PKD1 inh: -1.8; GALR2 ag: 0.5; RGS16-Gao HTS: 70.8; HSV augment: inactive; HSV augment primary fold: 0.89

How did COC(=O)c1cc(OC)c(OC)cc1NC(=S)N1CCN(C)CC1 do in these assays?
PKD1 inh: 10.0; GALR2 ag: -1.6; RGS16-Gao HTS: 105.3; HSV augment: inactive; HSV augment primary fold: 0.85

Results for CC1CC(C)CN(Cc2nc(N)nc(Nc3ccc4ccccc4c3)n2)C1 (configuration not stated) ?
PKD1 inh: 3.5; GALR2 ag: -3.9; RGS16-Gao HTS: 98.3; HSV augment: inactive; INS promoter inh: 37.5; INS promoter inh cell count: 61.3; HSV augment primary fold: 0.893

What do the screens show for `COc1ccc(NC(=O)C2CCCN(S(=O)(=O)c3cccnc3)C2)cc1` (configuration not stated)?
PKD1 inh: -4.5; GALR2 ag: -1.5; RGS16-Gao HTS: 100.9; HSV augment: inactive; HSV augment primary fold: 0.93

Results for O=C(CSc1cccc[n+]1[O-])Nc1cccc(Oc2ccccc2)c1 ?
PKD1 inh: -0.7; RGS16-Gao HTS: 105.5; HSV augment: inactive; HSV augment primary fold: 0.6

How did COC(=O)NNC(=O)Cc1cccc2ccccc12 do in these assays?
PKD1 inh: -10.1; GALR2 ag: -0.6; RGS16-Gao HTS: 109.2; HSV augment: inactive; INS promoter inh: 33.3; INS promoter inh cell count: 90.1; HSV augment primary fold: 0.93

What do the screens show for `COc1ccccc1-n1c(Cc2cccs2)n[nH]c1=S`?
PKD1 inh: -4.9; RGS16-Gao HTS: 96.4; HSV augment: inactive; HSV augment primary fold: 0.85

What do the screens show for `CCOC(=O)CCCn1nc(C)n2c(cc3sccc32)c1=O`?
PKD1 inh: -10.7; GALR2 ag: -1.2; RGS16-Gao HTS: 101.0; HSV augment: inactive; INS promoter inh: 50.0; INS promoter inh cell count: 121.5; HSV augment primary fold: 0.9

What do the screens show for `Cc1ccc(S(=O)(=O)NC(Cc2ccccc2)C(=O)O)cc1` (configuration not stated)?
PKD1 inh: 0.8; RGS16-Gao HTS: 98.8; HSV augment: inactive; HSV augment primary fold: 0.98

What do the screens show for `CCN(CC)C(=O)CSC1=C(C#N)C(c2ccco2)C(C(=O)OCCOC)=C(C)N1` (configuration not stated)?
PKD1 inh: -7.0; GALR2 ag: -1.6; RGS16-Gao HTS: 102.5; HSV augment: inactive; INS promoter inh: -42.9; INS promoter inh cell count: 107.9; HSV augment primary fold: 0.98

How did Cc1ccc(Cl)cc1-c1ccc(/C=N/n2cnnc2)o1 do in these assays?
PKD1 inh: -8.9; GALR2 ag: -0.7; RGS16-Gao HTS: 40.2; HSV augment: inactive; INS promoter inh: -21.1; INS promoter inh cell count: 48.9; HSV augment primary fold: 0.97

Results for CC(C)Cc1nc(NCCN2CCOCC2)c(C#N)c2c1COC(C)(C)C2 ?
PKD1 inh: -0.4; GALR2 ag: -1.4; RGS16-Gao HTS: 97.4; HSV augment: inactive; INS promoter inh: 27.3; INS promoter inh cell count: 129.6; HSV augment primary fold: 0.97

What do the screens show for `COc1ccccc1CNCc1cccc(Oc2ccccc2)c1`?
PKD1 inh: -1.4; RGS16-Gao HTS: 98.6; HSV augment: inactive; INS promoter inh: -63.2; INS promoter inh cell count: 99.0; HSV augment primary fold: 0.94

What do the screens show for `O=C(O)Cn1c2ccccc2c2ccccc21`?
PKD1 inh: -1.6; RGS16-Gao HTS: 99.8; HSV augment: inactive; INS promoter inh: -80.0; INS promoter inh cell count: 167.9; HSV augment primary fold: 0.78

What do the screens show for `Cc1ccc(C2(CC(=O)Nc3nccs3)CCOC(C(C)C)C2)cc1` (configuration not stated)?
PKD1 inh: -3.7; GALR2 ag: 0.5; RGS16-Gao HTS: 107.9; HSV augment: inactive; HSV augment primary fold: 1.06

How did COC(=O)c1ccc(C2/C(=C(/O)c3ccc(OC)cc3)C(=O)C(=O)N2Cc2ccco2)cc1 (configuration not stated) do in these assays?
PKD1 inh: -0.3; GALR2 ag: -1.6

What do the screens show for `Nc1nc(SCc2ccc([N+](=O)[O-])cc2)nc2nc3c(cc12)CCCC3`?
PKD1 inh: 7.2; GALR2 ag: 5.1*; RGS16-Gao HTS: 148.1; HSV augment: inactive; HSV augment primary fold: 1.16

How did CC(NC(=S)NC1CCCCC1)C(c1ccccc1)N1CCOCC1 (configuration not stated) do in these assays?
PKD1 inh: -9.9; RGS16-Gao HTS: 108.7; HSV augment: inactive; HSV augment primary fold: 0.94

How did O=C(CNc1cccc(C(F)(F)F)c1)N/N=C/c1ccccc1C(=O)O do in these assays?
RGS16-Gao HTS: 101.6; HSV augment: inactive; HSV augment primary fold: 0.98

What do the screens show for `CCN(CC)c1ccc(NS(=O)(=O)c2ccc(OC)cc2)cc1`?
PKD1 inh: -7.8; RGS16-Gao HTS: 97.1; HSV augment: inactive; INS promoter inh: -33.3; INS promoter inh cell count: 151.1; HSV augment primary fold: 0.95

Results for CCCn1c(SCC(=O)Nc2c(C)cccc2CC)nnc1C(C)C ?
PKD1 inh: 1.0; GALR2 ag: -0.9; RGS16-Gao HTS: 97.3; HSV augment: inactive; INS promoter inh: 8.3; INS promoter inh cell count: 62.4; HSV augment primary fold: 0.95

How did COc1ccc2cc(/C=N/O)c(Cl)nc2c1 do in these assays?
PKD1 inh: -2.9; RGS16-Gao HTS: 98.9; HSV augment: inactive; INS promoter inh: 20.0; INS promoter inh cell count: 209.1; HSV augment primary fold: 0.94

How did COc1ccccc1NS(=O)(=O)c1ccc(Cl)c(NC(=O)c2sc3cc(Cl)ccc3c2Cl)c1 do in these assays?
PKD1 inh: -3.8; RGS16-Gao HTS: 97.0; HSV augment: inactive; HSV augment primary fold: 0.88

How did CCCNC(=O)NC(=O)CSc1nc(C)cs1 do in these assays?
PKD1 inh: -3.0; RGS16-Gao HTS: 72.3; HSV augment: inactive; INS promoter inh: 8.1; INS promoter inh cell count: 58.9; HSV augment primary fold: 1.04

What do the screens show for `O=C(Nc1cccc(C(F)(F)F)c1)c1ccccc1NC(=O)C1CCCCC1`?
PKD1 inh: -6.7; GALR2 ag: -0.7; RGS16-Gao HTS: 102.0; HSV augment: inactive; INS promoter inh: 3.7; INS promoter inh cell count: 121.1; HSV augment primary fold: 0.97

Results for O=C1CSC(c2cccnc2)N1c1ccc(Cl)cc1 (configuration not stated) ?
PKD1 inh: 9.9; RGS16-Gao HTS: 110.0; HSV augment: inactive; HSV augment primary fold: 0.92

How did CCOC(=O)N1CCC(N2CCCC(C(=O)c3cc(C)c(OC)c(C)c3)C2)CC1 (configuration not stated) do in these assays?
PKD1 inh: 2.4; RGS16-Gao HTS: 97.1; HSV augment: inactive; INS promoter inh: 44.4; INS promoter inh cell count: 110.2; HSV augment primary fold: 0.87

How did CCOc1cc(C(=O)Nc2ccccc2F)cc(Br)c1OCC do in these assays?
PKD1 inh: 1.8; GALR2 ag: -0.3; RGS16-Gao HTS: 115.5; HSV augment: inactive; INS promoter inh: -26.7; INS promoter inh cell count: 69.1; HSV augment primary fold: 0.86

Results for Cc1ccc(S(=O)(=O)N(C)C)cc1NC(=O)c1c(-c2c(F)cccc2Cl)noc1C ?
RGS16-Gao HTS: 102.7; HSV augment: inactive; HSV augment primary fold: 1.02

How did O=[N+]([O-])c1cc(Cl)ccc1Oc1ccc(-c2nnco2)cc1 do in these assays?
PKD1 inh: -8.0; RGS16-Gao HTS: 99.9; HSV augment: inactive; HSV augment primary fold: 1.01

How did O=C(Nc1ccc(Cl)c(Cl)c1)Nc1nccs1 do in these assays?
RGS16-Gao HTS: 103.9; HSV augment: inactive; HSV augment primary fold: 0.48

What do the screens show for `COc1ccc2[nH]c(C)c(CN3CCC(C)CC3)c(=O)c2c1`?
PKD1 inh: -6.6; GALR2 ag: -0.1; RGS16-Gao HTS: 94.6; HSV augment: inactive; INS promoter inh: -3.1; INS promoter inh cell count: 117.9; HSV augment primary fold: 1.04

How did O=C(NCc1ccccn1)C1CCN(C(=O)c2cc3sccc3n2Cc2ccc(F)cc2)CC1 do in these assays?
PKD1 inh: 10.6; RGS16-Gao HTS: 98.3; HSV augment: inactive; INS promoter inh: -40.0; INS promoter inh cell count: 76.4; HSV augment primary fold: 1.09

How did CCc1nnc(NC(=O)CSc2nc3c(c(=O)n2CC)SC(C)C3)s1 (configuration not stated) do in these assays?
PKD1 inh: -7.1; GALR2 ag: -2.4; RGS16-Gao HTS: 104.8; HSV augment: inactive; HSV augment primary fold: 1.01

Results for CC(=O)CN1Cc2ccccc2/C1=N\C(=O)Nc1ccccc1 ?
PKD1 inh: -4.8; GALR2 ag: 0.0; RGS16-Gao HTS: 98.5; HSV augment: inactive; HSV augment primary fold: 0.96

Reprinted from the part before: three entries; new compounds follow.
How did O=C(NCc1ccccn1)C1CCN(C(=O)c2cc3sccc3n2Cc2ccc(F)cc2)CC1 do in these assays?
PKD1 inh: 10.6; RGS16-Gao HTS: 98.3; HSV augment: inactive; INS promoter inh: -40.0; INS promoter inh cell count: 76.4; HSV augment primary fold: 1.09

How did CCc1nnc(NC(=O)CSc2nc3c(c(=O)n2CC)SC(C)C3)s1 (configuration not stated) do in these assays?
PKD1 inh: -7.1; GALR2 ag: -2.4; RGS16-Gao HTS: 104.8; HSV augment: inactive; HSV augment primary fold: 1.01

Results for CC(=O)CN1Cc2ccccc2/C1=N\C(=O)Nc1ccccc1 ?
PKD1 inh: -4.8; GALR2 ag: 0.0; RGS16-Gao HTS: 98.5; HSV augment: inactive; HSV augment primary fold: 0.96

How did Cc1ccc2cccc(N=Cc3c(C)[nH]n(-c4ccccc4)c3=O)c2n1 do in these assays?
PKD1 inh: 3.7; GALR2 ag: 0.0; RGS16-Gao HTS: 57.0; HSV augment: inactive; HSV augment primary fold: 0.71

What do the screens show for `O=C(Nc1nc2cc3c(cc2s1)OCCO3)c1cccc(N2C(=O)CCC2=O)c1`?
PKD1 inh: -6.5; RGS16-Gao HTS: 96.3; HSV augment: inactive; HSV augment primary fold: 0.65

What do the screens show for `Cc1onc(-c2ccccc2Cl)c1C(=O)Nc1ccc(S(=O)(=O)N2CCCC2)cc1`?
PKD1 inh: -0.6; GALR2 ag: -2.4; RGS16-Gao HTS: 100.9; HSV augment: inactive; HSV augment primary fold: 0.87

How did COC1=C/C(=C/c2c(N)n3nc(-c4ccc(C)cc4)sc3nc2=O)C=CC1=O do in these assays?
PKD1 inh: -8.2; RGS16-Gao HTS: 104.8; HSV augment: inconclusive

Results for O=C(NC(=S)N(Cc1ccccc1)Cc1ccccc1)C1CCCCC1 ?
PKD1 inh: 11.3; GALR2 ag: -1.5; RGS16-Gao HTS: 86.2; HSV augment: inactive; HSV augment primary fold: 1.1

What do the screens show for `Cc1ccsc1CN1CC(=O)N(c2c(C)cccc2C)C1=S`?
PKD1 inh: -6.8; RGS16-Gao HTS: 100.2; HSV augment: inactive; INS promoter inh: -33.3; INS promoter inh cell count: 80.7; HSV augment primary fold: 0.91

What do the screens show for `CC(=O)c1cccc(NS(=O)(=O)c2ccc3c(c2)oc(=O)n3C)c1`?
PKD1 inh: -2.4; GALR2 ag: -0.2; RGS16-Gao HTS: 99.7; HSV augment: inactive; INS promoter inh: -11.4; INS promoter inh cell count: 147.3; HSV augment primary fold: 0.91

What do the screens show for `Cc1ccc(S(=O)(=O)c2cc3c(=O)n4ccccc4nc3n(Cc3ccco3)c2=N)cc1C`?
PKD1 inh: -3.3; GALR2 ag: -1.2; RGS16-Gao HTS: 98.0; HSV augment: inactive; INS promoter inh: -6.1; INS promoter inh cell count: 123.0; HSV augment primary fold: 1.04

Results for CCOC(=O)Cc1csc(NC(=O)CSc2nnc(-c3ccc(NS(=O)(=O)CC)cc3)o2)n1 ?
PKD1 inh: -4.9; GALR2 ag: -2.6; HSV augment: inactive; INS promoter inh: 31.2; INS promoter inh cell count: 82.4; HSV augment primary fold: 0.93

How did CCCCNS(=O)(=O)c1ccc2nc(SCC(=O)Nc3cccc(F)c3)[nH]c2c1 do in these assays?
PKD1 inh: -8.0; GALR2 ag: -1.4; RGS16-Gao HTS: 104.2; INS promoter inh: 15.4; INS promoter inh cell count: 97.4

How did CN(C)c1ccc(/C=C(/C(=O)c2ccc(Cl)cc2Cl)n2cncn2)cc1 do in these assays?
PKD1 inh: -9.1; GALR2 ag: -0.6; RGS16-Gao HTS: 101.6; INS promoter inh: 41.4; INS promoter inh cell count: 116.1
